Mtb bLac sens: beta-lactam sensitization of Mtb H37Rv, H37Rv; 0.27% of 330,000 active; inhibition, % at 25 µM; M. tuberculosis H37Rv growth with meropenem, percent inhibition; hits of this screen are not shown here;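 active means about 74% or more and at least 40 points above the plate without the antibiotic, then above 30% in a dose series; inconclusive means first-round hits that could not be retested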;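 further: growth measured after seven days incubation then overnight dye step; 0% = bacteria only wells and 100% = bacteria with antibiotic; twin plates without the antibiotic show which effects depend on it; some results filed as inactive read as strong as hits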
Mtb H37Rv: M. tuberculosis H37Rv growth inhibitors, H37Rv strain (AID 1626); M. tuberculosis H37Rv growth inhibition; higher % means a stronger effect; inhibition, % at 10 µM; hits with a dose series show IC50 in µM; 0.95% of 220,000 active;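 active means confirmed in a dose series; inconclusive means inhibition above 80% but not taken into the dose series; inactive means below 80% or under 30% at every dose of the series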;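 further: bacteria incubated seven days before Alamar blue readout; 0% = bacteria only wells and 100% = bacteria with antibiotic wells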
RecA splice inh: Mtb RecA intein splicing inhibitors, primary screen, biochemical, fluorescence, HTS | inhibition, %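 (about 9 µM by stock and volumes)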 | Protein RecA (Mycobacterium tuberculosis (strain ATCC 25618 / H37Rv)), P9WHJ3 | cell-free RecA intein splicing | 0.75% of 290,000 active; in the data active means inhibition above about 30%; inconclusive means no clear call, values can overlap the other calls;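 further: 0% = vehicle wells and 100% = reference inhibitor control wells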
Target sequence (P9WHJ3 whole entry, looked up, canonical isoform): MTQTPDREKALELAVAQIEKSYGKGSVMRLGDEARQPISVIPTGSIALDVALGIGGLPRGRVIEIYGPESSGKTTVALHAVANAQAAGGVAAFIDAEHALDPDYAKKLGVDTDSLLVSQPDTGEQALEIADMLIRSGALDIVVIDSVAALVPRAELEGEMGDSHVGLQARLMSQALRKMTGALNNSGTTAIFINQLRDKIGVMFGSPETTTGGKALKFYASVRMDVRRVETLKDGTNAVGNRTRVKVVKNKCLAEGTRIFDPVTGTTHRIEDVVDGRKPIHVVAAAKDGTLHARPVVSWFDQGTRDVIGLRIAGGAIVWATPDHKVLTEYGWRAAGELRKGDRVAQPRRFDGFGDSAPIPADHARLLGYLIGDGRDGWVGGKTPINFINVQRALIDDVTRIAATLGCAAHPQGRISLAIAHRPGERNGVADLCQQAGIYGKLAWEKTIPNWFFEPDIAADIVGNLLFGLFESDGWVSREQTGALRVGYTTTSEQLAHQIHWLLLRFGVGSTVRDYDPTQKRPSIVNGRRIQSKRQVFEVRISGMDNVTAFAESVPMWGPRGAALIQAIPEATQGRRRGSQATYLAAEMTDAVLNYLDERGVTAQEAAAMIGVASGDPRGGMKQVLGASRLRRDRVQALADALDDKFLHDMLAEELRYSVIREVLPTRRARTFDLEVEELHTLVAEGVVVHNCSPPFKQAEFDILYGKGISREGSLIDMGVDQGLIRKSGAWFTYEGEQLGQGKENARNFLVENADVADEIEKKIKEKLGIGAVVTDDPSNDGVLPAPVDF
YopH PTP inh: YopH tyrosine phosphatase inhibitors, primary screen, biochemical, fluorescence Ex485/Em525; YopH tyrosine phosphatase [Yersinia enterocolitica]; inhibition, %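 (about 10 µM by stock and volumes)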; 0.16% of 140,000 active; AID 898, 2007;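 active means inhibition of 50% or more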;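 further: controls were vehicle for no effect and minimum signal wells for full effect; inactives centre near -20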
Arbovirus anti: antivirals against arbovirus infection, primary screen, cell-based, full library, 10K replicate subset. arbovirus infection cell-based antiviral screen. inhibition, % at 10 µM. 0.37% of 200,000 active. AID 1251, 2008;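 active means inhibition from about 30%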;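 further: bluetongue infection of BSR cells; cell survival read as ATP light after 72 h; 0% = infected wells without compound and 100% = uninfected wells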
Arbovirus anti repeat: also measured in Arbovirus anti; calls as there; inhibition, %; measured here: 10K subset replicate screen; many hits read low in the repeat;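 first of two repeat runs on a subset; 0% = infected and 100% = uninfected wells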
* = called active by the depositor; ? = inconclusive; · = not tested or not shown; & = joins results of further samples. These rows are one share of the data (hit frequency here may not be typical).

SMILES	Mtb bLac sens	Mtb H37Rv	RecA splice inh	YopH PTP inh	Arbovirus anti	others
CC(c1ccccc1F)n1cc(C(=O)NCCCc2nc3ccccc3[nH]2)nn1 (centres undefined)	-1	-4%	1.6	·	1
COc1ccc(OC)c(NC(=O)COc2ccc(Br)cc2)c1	-3	·	-0.9	·	·
Nc1c(C(=O)C2CC2)sc2nc3c(cc12)CCC3	-4	-5%	-26	·	-5
COCCC(=O)N1CCC(Oc2ccc(C(=O)N3C[C@H]4CC[C@H]3C4)cc2)CC1	-13	·	0.8	·	·
Cc1ccc(NC(=O)COc2coc(CN3CCc4ccccc4C3)cc2=O)c(C)c1	3	·	5.8	·	·
O=C(CCS(=O)(=O)c1ccc(Cl)cc1)Oc1ccc2c(c1)OCO2	-7	1%	0.2	-19	-2
COc1ccc(-c2cc(C(F)(F)F)c(C#N)c(SCC(=O)Nc3nc(C)co3)n2)cc1	?	-1%	·	-6	-8
CN(C)C(=S)NC(=O)C12CC3CC(C)(CC(C)(C3)C1)C2	1	-3%	·	·	·
CCOP(=S)(OCC)SCC(=O)NC(C)(CC)C(=O)O (centres undefined)	0	-6%	·	-19	-3
COc1cccc(N(CC(=O)NC2CCCCC2)C(=O)c2snc(C(N)=O)c2N)c1	-3	·	1.1	·	·

Reprinted from the part before: 7 compounds, followed by the next part.
SMILES	Mtb bLac sens	Mtb H37Rv	RecA splice inh	YopH PTP inh	Arbovirus anti	others
COCCC(=O)N1CCC(Oc2ccc(C(=O)N3C[C@H]4CC[C@H]3C4)cc2)CC1	-13	·	0.8	·	·
Cc1ccc(NC(=O)COc2coc(CN3CCc4ccccc4C3)cc2=O)c(C)c1	3	·	5.8	·	·
O=C(CCS(=O)(=O)c1ccc(Cl)cc1)Oc1ccc2c(c1)OCO2	-7	1%	0.2	-19	-2
COc1ccc(-c2cc(C(F)(F)F)c(C#N)c(SCC(=O)Nc3nc(C)co3)n2)cc1	?	-1%	·	-6	-8
CN(C)C(=S)NC(=O)C12CC3CC(C)(CC(C)(C3)C1)C2	1	-3%	·	·	·
CCOP(=S)(OCC)SCC(=O)NC(C)(CC)C(=O)O (centres undefined)	0	-6%	·	-19	-3
COc1cccc(N(CC(=O)NC2CCCCC2)C(=O)c2snc(C(N)=O)c2N)c1	-3	·	1.1	·	·
O=C(O)C1CCN(S(=O)(=O)c2ccc3c(c2)OCCCO3)CC1	-1	1%	-2.7	·	5
Cc1ccc(-n2ncc3c(N4CCCC(C)C4)ncnc32)c(C)c1 (centres undefined)	0	16%	0.6	·	8	Arbovirus anti repeat=7
CCCCN1CN(Cc2ccccc2)CNC1=S	8	-8%	2.6	-23	-2
N#CCC(=O)N/N=C\c1ccccc1OC/C=C/c1ccccc1	35	·	2.7	·	·
O=C(N/N=C1/SCC(=O)N1Cc1ccco1)c1ccccc1F	-3	-6%	-1.6	·	-3
Cc1cc(C)n(-c2ccc(Cl)c(C(=O)OCC(=O)N3CCCCC3C)n2)n1 (centres undefined)	0	-1%	2.1	·	·
Cc1ccc(NC(=S)Nc2ccc(C(C)C)cc2)cc1S(=O)(=O)N1CCCCCC1	2	15%	6.2	-26	-18
COc1ccc(CN2CC=C(c3ccc(F)cc3)CC2)cc1Br	8	·	6.3	·	·
COc1ccc(CC(=O)OC(C)C(=O)Nc2ccc(S(N)(=O)=O)cc2)cc1 (centres undefined)	2	·	-2.9	·	·
CCCCCCn1c(-c2cccs2)n[nH]c1=S	9	11%	2.9	·	0
COc1ccc(OC)c(NC(=O)c2ccc(CSc3ncccn3)cc2)c1	15	0%	3.0	·	-15
CN(C)S(=O)(=O)c1ccc(C(=O)Nc2ccc(F)cc2F)cc1	-8	-4%	10	·	10	Arbovirus anti repeat=-1
C/C(=N\NC(=O)COc1ccc(C#N)cc1)c1ccccc1OC(F)F	7	7%	2.0	-23	0
Cc1ccc(S(=O)(=O)N2CCCC(N3CCOCC3)C2)cc1Cl (centres undefined)	-4	·	1.8	·	·
O=C(Nc1nccs1)c1cc2c(s1)-c1ccccc1OC2	3	·	-8.2	-3	-8
Cc1ccc(-n2c(CCc3ccccc3)nnc2SCC(=O)NCc2ccccc2)cc1C	9	-9%	·	-11	-2
COCCNC(=O)CN(c1ccc(F)cc1)S(=O)(=O)c1ccc2c(c1)OCCO2	-11	·	-0.6	·	·
O=C(COC(=O)c1ccc(Cl)c(S(=O)(=O)N2CCCCCC2)c1)Nc1ccccc1	2	1%	4.5	-24	4
O=c1cc(N2CCc3ccccc32)[nH]c(=O)n1-c1ccccc1	-1	3%	-1.1	8	2
CCCCOc1ccc(C(=O)N2CCN(CC(=O)Nc3ccc(C)cc3)CC2)cc1OC	2	·	0.6	·	·
CCCCN(C(=O)CCn1c(=O)oc2ccccc21)c1ccccc1	1	·	2.7	·	·
N#C/C(C(=O)N1CCOCC1)=C1/SC=C(c2ccccc2)N1c1ccccc1	·	·	·	26	4	Arbovirus anti repeat=-2
CCn1c(CCNC(=O)c2ccc(Cl)c(Cl)c2)nnc1SCCOc1ccc(OC)cc1	10	9%	·	-19	-12
Cc1cc(Br)cn2cc(C(=O)O)nc12	-1	-12%	0.3	·	2
COc1ccc(OCC(=O)Nn2c(-c3cccc(OC)c3)nc3ccccc3c2=O)cc1	4	-2%	0.9	-27	7
O=C(O)c1cccnc1Oc1ccccc1	-1	·	-3.0	5	-2
Cc1ccn2c(=O)nc(SCC(=O)NCc3ccco3)nc2c1	-1	·	-0.8	·	·
CC(C)OC(=O)CSc1nnc(CNc2nc(-c3ccccc3)cs2)n1C	5	2%	2.3	-52	4
Cc1ccc(-n2cc(CN(C)Cc3nccn3C)c(-c3ccc(F)cc3)n2)cc1	99	60%	1.3	·	-33
Cc1cc(OCC(=O)Nc2ccc3oc(-c4ccncc4)nc3c2)ccc1Cl	-5	-5%	2.5	0	-6
O=C(NCc1ccccc1)C(c1cccnc1)N(C(=O)c1csnn1)c1ccc(F)cc1 (centres undefined)	1	·	-0.5	·	·
O=C(NCCc1ccncc1)C12CC3CC(CC(C3)C1)C2	-15	-2%	0.3	-9	3
O=C(Nc1ccc(Br)cn1)c1cccc(-c2cc3ccccc3oc2=O)c1	2	15%	1.8	-26	2
CCN(c1ccc(OC)cc1)S(=O)(=O)c1cc(-c2cc(C)no2)ccc1C(C)C	-7	·	9.1	·	·
C=CCSc1nc(N)c2c(C)c(C)sc2n1	-13	-3%	1.6	-41	12	Arbovirus anti repeat=6
COc1cc(/C=N/NC(=O)c2cc(-c3ccccc3)sc2N)cc(OC)c1OC	-6	12%	-1.6	·	·
Cc1cccc(Nc2nc3c(c(=O)n(C)c(=O)n3C)n2Cc2ccccc2)c1	·	1%	0.0	1	6
CC(=O)Nc1ccc(S(=O)(=O)N2CCN(Cc3ccccc3[N+](=O)[O-])CC2)cc1	-5	2%	2.5	·	17
COc1ccc(OC)c(C(=O)c2coc3ccc(OC(C)=O)cc23)c1	4	13%	-0.6	-2	-3
CCCOn1nnnc1-c1ccccc1	-3	-3%	-2.7	-48	-1
CCOc1[nH]n(-c2ccccc2)c(=O)c1C=Nc1ccc(Cl)cc1	3	-2%	-0.3	-10	-6
CCc1ccc(NS(=O)(=O)c2ccc3c(c2)CCN3C(=O)CCC(=O)O)cc1	-2	·	0.3	·	·
CCc1cc(C(=O)N2CCc3c([nH]c4ccccc34)C2c2ccc(OC)cc2F)no1 (centres undefined)	9	2%	3.5	·	7
COc1cc([N+](=O)[O-])ccc1NC(=O)CC(C)C	-1	0%	1.4	-21	12
CCOC(=O)c1c(-c2ccc(C)o2)csc1NC(=S)NC(=O)c1ccccc1Br	-4	2%	4.0	-38	47*
CC(=O)Nc1ccc(NC(=O)CSc2ccc(C(F)(F)F)cc2[N+](=O)[O-])cc1	-2	0%	0.9	-34	-1
COCCNC(=O)C(=O)NCCN1CCNCC1	-2	1%	-1.1	·	-1
O=C(Nc1ccc(F)cc1F)c1csc(-c2ccncc2)n1	31	0%	1.6	·	4
CCOC(=O)C1=C(N)N(c2ccccc2Oc2ccccc2)C(=O)C1	61	3%	-0.8	-24	-1
COc1cccc(N2CCN(C(=O)CCc3nnc4ccc(N5CCCC5)nn34)CC2)c1	2	·	-4.2	·	·
Remaining list, next part
SMILES	Mtb bLac sens	Mtb H37Rv	RecA splice inh	YopH PTP inh	Arbovirus anti	others
COc1ccc(-c2c(C)n([O-])c(C)c(C)[n+]2=O)cc1	-2	4%	-0.8	-16	-2
O=C(Nc1cccc(F)c1)C1CCCN1C(=O)OCc1ccccc1 (centres undefined)	-2	·	4.2	·	·
CCOC(=O)C1(Cc2cccc(Cl)c2)CCCN(C(=O)CN2C(=O)CSC2=O)C1 (centres undefined)	-2	·	4.0	·	·
COc1ccc(Oc2cnn(-c3ccccc3)c(=O)c2Br)cc1	-10	7%	·	·	7
CCOC(=O)N1CCC(n2c(SCC(=O)NCCc3ccc(S(N)(=O)=O)cc3)nc3ccccc3c2=O)CC1	-5	-6%	2.3	·	8
CC(C)(O)C#Cc1ccc(C(=O)Nc2ccc3c(c2)OCO3)s1	95	·	-0.5	·	·
COc1ccc(NC(=O)COC(=O)c2cnccn2)cc1Cl	-5	1%	-0.1	4	-2
CC1=NNC(=O)/C1=C\c1cn(-c2ccccc2)nc1-c1ccc(F)cc1	·	0%	66*	·	-30
c1ccc(-c2csc3ncnc(NCC4COc5ccccc5O4)c23)cc1 (centres undefined)	8	17%	25	-18	-24
CC(C)(C)NC(=O)C1CCC(CNc2c(N3CCCCC3)c(=O)c2=O)CC1 (centres undefined)	-7	-3%	2.4	·	·
O=C(NCCc1ccccc1)C1CCN(S(=O)(=O)c2ccc(Br)s2)CC1	-8	1%	3.1	13	13
COc1cccc(NC(=O)CSc2nc(=O)n(Cc3ccncc3)c3c2CCCC3)c1	0	·	2.3	·	·
Cc1cc(C)cc(NC(=O)c2ccc3nc[nH]c3c2)c1	6	-1%	0.8	-51	-5
O=C(CSc1nnnn1-c1ccc2c(c1)OCO2)NCc1cccs1	-9	-3%	-0.5	-22	3
O=C(CCc1nnc2ccc(N3CCC4(CC3)OCCO4)nn12)N1CCCCC1	-5	·	0.5	·	·
CC(C)(C)c1ccc(/C=C/C(=O)NCCCN2CCOCC2)cc1	-5	·	0.8	·	·
Cc1ccc(CNC(=O)C2CCCN(S(=O)(=O)N3CCC(C)CC3)C2)cc1 (centres undefined)	1	·	-1.6	·	·
O=C(CNC(=O)c1cccs1)OCC(=O)c1ccccc1	0	-3%	1.2	-25	-7
Nc1nnc(-c2cccnc2)s1	-5	-6%&-12%	-0.8	15	7
CCOC(=O)C1CCN(C(=O)COC(=O)c2cccc(F)c2)CC1	-9	-2%	-0.5	·	3
CC(NCc1cccs1)C(=O)NC1CCCCC1 (centres undefined)	-5	-6%	1.4	·	12
Cc1nn(C)c(C)c1CNC(=O)c1nn2c(c1Cl)NC(c1cccs1)CC2C(F)(F)F (centres undefined)	6	-1%	-1.5	-13	11
C(=N\Nc1nc(Nc2ccccc2)nc(Nc2ccccc2)n1)/c1cccnc1	2	16%	1.9	·	-8
COc1ccc(C2=NN(c3ccccc3)C(c3cn(CCC(=O)O)nc3-c3ccccc3)C2)cc1 (centres undefined)	-8	4%	-37	·	-23
COc1ccc(Cc2nc3ccccc3n2C)cc1	-7	-3%	0.0	·	6
CCCCC(=O)NC1(C(F)(F)F)C(=O)N(Cc2ccco2)C(C)=C1C(=O)OC (centres undefined)	5	-2%	0.1	4	-4
Cc1ccc(N(C(=O)c2ccc(S(=O)(=O)N3CCOCC3)cc2)C2C=CS(=O)(=O)C2)cc1C (centres undefined)	2	1%	-0.8	·	1
CC(C)CC(=O)N/N=C/c1c(N)n(C)c(=O)n(C)c1=O	5	2%	1.0	·	·
COc1ccc(CCNC(=O)c2cnn3c(C(F)F)cc(C)nc23)cc1OC	1	0%	0.0	-29	0
COc1cccc(CN2CCNC(=O)C2CC(=O)NC2CCCC2)c1OC (centres undefined)	-11	·	-8.9	·	·
CCN1CCC[C@H]1CNC(=O)c1c(O)c(Cl)cc(Cl)c1OC	-8&-6	-10%&-7%&-1%	-2.9&-2.8	·	2
O=[N+]([O-])c1cccc(CN2CCN(c3ncccn3)CC2)c1	-1	·	-0.4	·	·
O=C(CS(=O)(=O)c1ccc(F)cc1)NCc1ccccc1	0	·	0.2	·	·
CC(=O)NC(O)C(=O)c1ccco1 (centres undefined)	0	1%	0.8	-30	7
O=C(N/N=C/c1c[nH]c2ccccc12)c1ccc(O)c(O)c1	2	·	-6.1	·	·
Cc1ccc(-c2c(C)n([O-])c3c([n+]2=O)CCC3)cc1	1	-1%	-2.1	-39	-4
CCn1c(SCC(=O)c2cc(OC)ccc2OC)nnc1C(C)C	-8	-1%	-6.1	-1	2

High-throughput results (PubChem)
